# VDR inh: inhibitors of human vitamin D receptor. P11473. 0.93% of 400,000 active. VDR-SRC2-3 peptide fluorescence polarization, 2 h. Potency, µM, without a hit: max response, negative = inhibition, actives largely listed as inhibitors; active = well fitted inhibition curve with a large enough effect; inconclusive = small, poorly fitted or top-dose-only effect, or another doubt; inactive = no such curve, though single readings can be large or run the other way; also: series mostly up to about 120 µM
# Target sequence (P11473 whole entry, looked up): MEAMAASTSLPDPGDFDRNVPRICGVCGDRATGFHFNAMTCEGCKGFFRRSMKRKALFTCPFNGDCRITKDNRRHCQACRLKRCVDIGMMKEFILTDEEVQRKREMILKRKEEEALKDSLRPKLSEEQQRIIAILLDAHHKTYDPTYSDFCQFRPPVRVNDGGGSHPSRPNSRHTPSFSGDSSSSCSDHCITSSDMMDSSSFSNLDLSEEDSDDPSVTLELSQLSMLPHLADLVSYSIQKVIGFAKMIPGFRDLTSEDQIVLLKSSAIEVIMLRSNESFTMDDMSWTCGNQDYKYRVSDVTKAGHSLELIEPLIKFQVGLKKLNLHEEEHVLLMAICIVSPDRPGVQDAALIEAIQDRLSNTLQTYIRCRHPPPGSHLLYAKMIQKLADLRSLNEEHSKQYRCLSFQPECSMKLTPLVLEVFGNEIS
#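 Fluorescence polarization assay measuring small-molecule disruption of VDR binding to the coregulator peptide SRC2-3. Compounds were pin-transferred (23 nl) into the reagent mix and incubated 2 h at room temperature before reading.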
# Numbers without * were called inactive; u = inconclusive; & = joins results of further samples; [ ] = another dose, or the depositor's remark. % is scaled to controls: 0 for no effect and ±100 for the full control effect; potency is read from the fitted curve at half-maximal effect.
no.	molecule	VDR inh
1	Cc1nc2cnc(N(C)C)nc2n(Cc2cccs2)c1=O	-0.8%
2	CSc1cccc(CN2CCC(Oc3ccc(C(=O)N4CCCCC4)cc3)CC2)c1	-5.7%
3	COc1ccc(OC)c(NC(=O)c2ccccc2NS(=O)(=O)c2cccc3cccnc23)c1	2.2%
4	CCCCc1nc(SCC(=O)Nc2cc(C)on2)n[nH]1	10.3%
5	O=C(c1ccccc1)c1ccc2nc(N3CCCCC3)c3nncn3c2c1	-9.3%
6	O=C(CN1CCc2ccccc21)NCc1ccccc1Cl	-9.2%
7	CCOc1ccc(CC(C(=O)NN)C(=O)NN)cc1CN(C)C	11.2%
8	COc1ccc2nc(Nc3ccccc3)sc2c1	0.1%
9	O=C(CCc1ccccc1)Nc1cc(C(=O)O)cc(C(=O)O)c1	1.0%
10	CC(OC(=O)Cc1c[nH]c2ccccc12)C(=O)N(C)c1ccccc1 (centres undefined)	-1.6%
11	Cc1ncc([N+](=O)[O-])n1CCOC(=O)c1cc(Cl)cc(Cl)c1N	-10.0%
12	CC(C)C1NC(C(=O)O)Cc2c1[nH]c1ccccc21 (centres undefined)	-1.9%&2.1%
13	O=C(NCCCN1CCOCC1)C1CC(=O)N(C2CCCCC2)C1 (centres undefined)	-3.4%
14	CC1CCCC(C)N1CCNC(=O)C1CCN(S(=O)(=O)N2CCCCC2)CC1 (centres undefined)	-1.0%
15	COc1ccc(NC(=O)C2CCCN(S(=O)(=O)c3ccc(F)cc3)C2)cc1 (centres undefined)	-5.1%
16	CCN1C(=O)N[C@@H](c2cccc(F)c2)C(C(=O)OC)=C1C	-5.4%
17	O=C(CNC(=S)NC(=O)c1cccs1)c1ccccc1	-16.8%
18	CC(C)CN(CC(C)C)S(=O)(=O)N1CCC(C(=O)NCCN2CCOCC2)CC1	-1.0%
19	O=C(CN1CCN(c2ccccc2F)CC1)c1ccc2cc[nH]c2c1	2.0%
20	CC(=O)c1cccc(NC(=O)c2nc(-c3ccccc3)n(-c3cccc(C)c3)n2)c1	6.4%
21	COc1cc(NC(=O)c2cc([N+](=O)[O-])ccc2NC(=O)CNC2CCCCC2C)cc(OC)c1 (centres undefined)	-1.2%
22	CCOc1ccc(-c2nnn(CCC#N)n2)cc1OC	u
23	COCCN1CCN(C(=O)c2cc(COc3cc(C)ccc3C)on2)CC1	4.0%
24	O=C(CCc1c[nH]c2ccccc12)NCC1COc2ccccc2O1 (centres undefined)	-13.0%
25	COc1nc(C#N)nc(N2CCCCC2)n1	-17.9%
26	CCCOc1c(Br)cc(C(=O)OCC(=O)NC(=O)c2cccn2C)cc1OC	-17.4%
27	N#CCc1nc(CSc2nc3ccccc3o2)cs1	4.9%
28	Cc1ccccc1-c1ccc2ncnc(N(C)Cc3ccco3)c2c1	31.6µM*
29	Cc1ccc(C(C)NC(=O)c2ccco2)cc1 (centres undefined)	-6.9%
30	COc1cccc(-n2nnc3c(sc4nc(C)cc(C)c43)c2=O)c1	6.8%
31	C/C=C/Cn1c(N(C)Cc2ccccc2)nc2c1c(=O)[nH]c(=O)n2C	-6.6%
32	O=C(c1cccs1)c1coc2ccc(O)cc12	-2.0%
33	O=c1[nH]ncc(N/N=C\c2cccnc2)c1Cl	4.7%
34	O=C1N2c3ccccc3CCc3cccc(c32)C1(O)C(F)(F)F (centres undefined)	32.2%[activator]
35	Cc1c(Nc2nc(-c3ccc(Cl)cc3)cs2)c(=O)n(-c2ccccc2)n1C	-5.4%
36	COc1ccc(OCC(=O)Nc2c3c(nn2C(C)(C)C)CS(=O)(=O)C3)cc1	-3.6%
37	Cc1cccc(CNc2cc(-c3ccccc3CN(C)C)ncn2)c1	4.2%
38	O=C(CCn1cnnn1)Nc1ccc(Cl)cc1Cl	-17.5%
39	CCOC(=O)c1sc(S(C)=O)c2c1CCc1conc1-2 (centres undefined)	-10.4%
40	C=C1C(=O)OC2C1CCC(C)=C1C(=O)C3OC3(C)C12 (centres undefined)	u
41	O=C(Nc1cccnc1)Nc1ccc(Cl)cc1Cl	-14.8%
42	CSc1ccccc1C(=O)C1CCCN(C(=O)c2cc(C(C)C)no2)C1 (centres undefined)	6.0%
43	COc1ccc(C(C(=O)NC2CCCCC2)N(CC2CCCO2)C(=O)CCCC(=O)Nc2ccccn2)cc1 (centres undefined)	-8.2%
44	O=C(Nc1ccc(Cl)cn1)c1ccc2c(Cl)c3c(nc2c1)CCC3	-0.1%
45	CCc1nc2nc(C)cc(Nc3cc(Cl)ccc3C)n2n1	1.9%
46	CN(Cc1ccccc1)C(=O)COC(=O)Cn1cnc2ccccc21	8.6%
47	CCOc1ccc(-n2c(=O)c3c4c(sc3n(CC(=O)NCC3CCCO3)c2=O)CCC4)cc1 (centres undefined)	-10.1%
48	COc1ccc(N2CCN(C(CNS(=O)(=O)c3cc(F)ccc3F)c3cccnc3)CC2)cc1 (centres undefined)	-9.7%

# Next part, overlapping the part above by 5 compounds.
no.	molecule	VDR inh
44	O=C(Nc1ccc(Cl)cn1)c1ccc2c(Cl)c3c(nc2c1)CCC3	-0.1%
45	CCc1nc2nc(C)cc(Nc3cc(Cl)ccc3C)n2n1	1.9%
46	CN(Cc1ccccc1)C(=O)COC(=O)Cn1cnc2ccccc21	8.6%
47	CCOc1ccc(-n2c(=O)c3c4c(sc3n(CC(=O)NCC3CCCO3)c2=O)CCC4)cc1 (centres undefined)	-10.1%
48	COc1ccc(N2CCN(C(CNS(=O)(=O)c3cc(F)ccc3F)c3cccnc3)CC2)cc1 (centres undefined)	-9.7%
49	COc1ccc(OC)c(NC(=S)NCc2ccc(S(N)(=O)=O)cc2)c1	-15.0%
50	Nc1cc2c(cc1Br)-c1ccc(F)cc1C2=O	-10.4%
51	Cc1cc(C)n2cc(CSc3nnnn3-c3ccccc3C)nc2n1	u
52	Cn1c(CNc2ccc(Cl)cc2)nnc1SCc1ccccc1	-19.2%
53	COc1ccc(NC(=O)c2ccc3c(=O)n4nc(Nc5ccccc5C)sc4nc3c2)cc1	10.4%
54	CSCCC(NS(=O)(=O)c1ccccc1)C(=O)OCc1cc(=O)oc2cc(O)ccc12 (centres undefined)	-0.6%
55	O=C(Cc1ccsc1)Nc1cc(F)ccc1F	-3.5%
56	O=C(c1ccccc1Cl)N1CCN(c2ccccn2)CC1	2.2%
57	COc1ccc(-c2csc(NC(=O)CSCc3c(C)noc3C)n2)cc1OC	-4.2%
58	COc1ccc(NC(=S)NC(=O)Cc2ccccc2)cc1	-9.0%
59	O=C(CSc1nnc(SCc2ccccc2)s1)N/N=C/c1c[nH]c2ccccc12	11.4%
60	Nc1nc(-c2ccccc2)c(CCCOc2ccc([N+](=O)[O-])cc2)c(=O)[nH]1	1.8%
61	Cc1ccc(N2C(=O)C(Cl)=C(NCCO)C2=O)c(C)c1	-9.9%
62	COc1ccc(CCNc2ncnc3nc[nH]c23)cc1OC	10.9%
63	COc1ccc(CCNC(=O)c2coc3ccccc3c2=O)cc1	-10.4%
64	CCOC(=O)c1cc(NC(=O)/C=C\C(=O)O)ccc1Cl	0.8%
65	CN(C)c1cccc(C(=O)N(Cc2ccccc2)Cc2ccccc2)c1	-14.6%
66	COc1ccc2oc(=O)cc(-c3cc4cccc(OC)c4o3)c2c1	-9.8%
67	CCn1c(SCC(=O)NCCOc2ccccc2)nc2ccccc2c1=O	-5.3%
68	CCC1(CC)C(=O)C(C)(C)C(=O)OC1c1cccs1 (centres undefined)	-4.7%
69	N#C/C(=C(/O)CN1C(=O)c2ccccc2C1=O)c1nc2ccccc2[nH]1	6.3%
70	O=C(CSc1ccccn1)Nc1nonc1[N+](=O)[O-]	-6.1%
71	CC1=NN(C(N)=S)C(=O)C1N=Nc1ccc(O)cc1 (centres undefined)	21.4%
72	CCc1cc2c(NC3CCCC3)ncnc2s1	6.9%
73	Cc1cc(NS(=O)(=O)c2ccc(NC(=O)CSc3nnc(-c4ccco4)n3C)cc2)nc(C)n1	2.4%
74	Cc1ccnc2nc(C(=O)OCC(=O)NCCc3ccccc3)nn12	8.7%
75	COc1ccc(CNC(=O)c2cccc(NC(=O)N3CCSc4ncccc43)c2)cc1	5.8%
76	Cc1cccc(-n2c(O)c(C=Nc3ccccc3-c3n[nH]c(=S)[nH]c3=O)c3ccccc3c2=O)n1	-21.4%
77	Cc1ccc(S(=O)(=O)N(C)c2ccc(OCC(=O)OCc3nnc(-c4ccccc4)o3)cc2)cc1	1.6%
78	CCOC(=O)Cc1csc(/N=C/c2c(O)n(-c3ccc(C)c(C)c3)c(=O)c3ccccc23)n1	-16.8%
79	CCOc1cccc2sc(N(CCCN(C)C)C(=O)c3ccc(S(=O)(=O)N4CCc5ccccc5C4)cc3)nc12	-2.4%
80	Cc1cn2c(=O)cc(COC(=O)c3ccc(NC(=O)COc4ccccc4F)cc3)nc2s1	7.1%
81	Cn1c(=O)c2c(nc(SCC(=O)N3CCOCC3)n2C)n(C)c1=O	7.6%
82	Cc1cc(C)cc(N2CCN(C(=O)N3CCOCC3)CC2)c1	-4.0%
83	Cc1ccc(C2c3[nH]c4ccccc4c3CCN2C(=O)c2ccc(N(C)C)cc2)cc1 (centres undefined)	17.4%
84	Fc1ccccc1CSc1nncn1NC/C=C/c1ccccc1	12.9%
85	Cc1cccc(-n2cc(CN(C)Cc3nccn3C)c(-c3cccc(F)c3)n2)c1	-13.0%
86	COc1ccc(N2C(=NC(C)=O)SC3CS(=O)(=O)CC32)cc1OC (centres undefined)	-5.1%
87	Oc1ccccc1-c1cc(C(F)(F)C(F)F)[nH]n1	-5.2%
88	CCc1ccc(CN(C)Cc2nc(Cc3ccccc3)no2)nc1	-11.8%
89	CCC[n+]1cn(/C(C(=S)Nc2cccc(Cl)c2C)=C(/[O-])c2ccc(OC)c(OC)c2)c2ccccc21	-18.0%
90	OCCN1CN=C(Nc2nc3ccccc3o2)NC1	13.9%
91	Cc1cccc(OCC(=O)N(Cc2ccco2)C2CCS(=O)(=O)C2)c1C (centres undefined)	8.3%
92	COc1ccc(N2Cc3cccc(C(=O)Nc4ccc(C(C)C)cc4)c3C2=O)cc1	7.2%
93	Cc1cccc(Oc2ncnc3oc(-c4ccccc4)cc23)c1C	10.7%
94	Cc1ccc(Nc2nc(CSc3nnc(-c4ccccc4C)n3C)cs2)cc1	3.1%
95	CCOc1ccc2c(c1)OC(c1ccccc1)(C(F)(F)F)NC2=O (centres undefined)	-8.9%
96	CCc1cc2c(=O)n(Cc3ccco3)c(SCC(=O)N(C)C3CCS(=O)(=O)C3)nc2s1 (centres undefined)	u
97	Nc1ccc(N2CCCCC2)c(Cl)c1	2.7%
98	CCOc1ccc(NC(=O)CN2C(=O)NC(C)(c3ccc4c(c3)OCCCO4)C2=O)cc1OCC (centres undefined)	6.9%
99	CN(C(=O)c1cn2ccccc2n1)c1c(N)n(Cc2ccccc2)c(=O)[nH]c1=O	u
100	CCOC(=O)CCCN1C(=O)CCn2nc(-c3cn(C)c4ccccc34)cc21	19.3%
101	O=C(OCc1cc(=O)n2cc(Br)ccc2n1)c1ccc(Cl)c(S(=O)(=O)NCc2ccccc2)c1	-5.9%
102	O=[N+]([O-])c1ccc(Cl)c(S(=O)(=O)NC2=NCCC2)c1	-21.3%
103	CCc1ccc(C(=O)NNC(=O)CC2OC(=O)c3ccccc32)cc1 (centres undefined)	0.2%
104	CCC(=O)Nc1ccc2c(c1)nc1n2CCN(C2CCCCC2)C1	-13.4%
105	COc1ccc(CN2CCNC(=O)C2CC(=O)N2CCCCO2)c(OC)c1 (centres undefined)	0.4%
106	CCOc1cc(/C=N/NC(=O)Cc2ccc(C(F)(F)F)cc2[N+](=O)[O-])ccc1O	-10.5%
107	COCC(=O)Nc1nc2ccc(S(C)(=O)=O)cc2s1	2.0%
108	CCc1ccccc1NC(=O)Cn1cc(C(=O)c2ccc(Cl)cc2)c(=O)c2ccc(C)nc21	4.9%

# Part of the list above, field by field:
(100) CCOC(=O)CCCN1C(=O)CCn2nc(-c3cn(C)c4ccccc34)cc21
  VDR inh: 19.3%

(101) O=C(OCc1cc(=O)n2cc(Br)ccc2n1)c1ccc(Cl)c(S(=O)(=O)NCc2ccccc2)c1
  VDR inh: -5.9%

# The listing continues.
no.	molecule	VDR inh
109	CC(=O)OCON[N+]([O-])=NC1CCCCC1	-7.9%
110	Cn1nnnc1Sc1ncnc2scc(-c3ccc([N+](=O)[O-])cc3)c12	u
111	O=C(CN(C(=O)CCC(=O)Nc1ccccn1)c1cccc(F)c1)NCc1ccco1	14.9%
112	O=C(NCc1ccccc1)C1Cc2ccccc2CN1C(=O)c1ccco1 (centres undefined)	-3.4%
113	CCN(CC)CCCNC(=O)CCn1nc(-c2ccc(Cl)cc2)ccc1=O	-1.5%
114	C=C1c2cc3c(cc2NC(=S)N1Cc1ccccc1)OCO3	-7.5%
115	O=C(c1ccccc1)N1CCN(C(=S)NCc2ccco2)CC1	-3.2%
116	CCOc1ccc2oc(=O)cc(CN3CCN(C(=O)c4ccc(F)cc4)CC3)c2c1	-4.3%
117	COC(=O)c1c(NC(=O)CN2C(=O)c3ccccc3C2=O)sc(Cc2ccc3c(c2)OCO3)c1C	-1.9%
118	COC(=O)c1ccsc1NC(=O)c1ccco1	-4.3%
119	CCc1ccc(NC(=O)c2sc3nc(C)nc(N4CCN(c5ccccn5)CC4)c3c2C)cc1	14.2%
120	O=C(N/N=C/c1ccc(O)cc1)/C(=C/c1ccccc1)CCO	-3.0%
121	Cc1nnsc1C(=O)N/N=C/c1ccccc1	-6.4%
122	COc1ccc(CCC(=O)NC2CC(=O)N(c3ccccc3)C2)cc1 (centres undefined)	9.0%
123	CC(C)(C)OC(=O)N1CCC(c2c(C(=O)NCc3cccs3)cnn2-c2cccc(F)c2)CC1	6.7%
124	CCN=C(NCC)SC1CC(=O)N(c2ccccc2)C1=O (centres undefined)	7.5%
125	Cc1cccc(C(C)C)c1NC(=O)C(C)OC(=O)Cc1n[nH]c(=O)c2ccccc12 (centres undefined)	-23.2%
126	C=CCOn1c(=O)c(-c2ccc(OCC)cc2)[n+]([O-])c2ccccc21	-13.6%
127	Cc1[nH]n(-c2ccccc2)c(=O)c1N=Nc1cccc([N+](=O)[O-])c1	23.9%

# Bioassay records as filed in PubChem.

# Not all compounds are listed (hit frequency here may not be typical).
